rRNA inh HTS = selective bacterial rRNA inhibition in E. coli. E. coli WT GFP vs humanized-ribosome RFP mutants, fluorescence, 24 h; hits give low values; DMSO median 0, no signal -100. GFP signal change (wild-type ribosome), % (no concentration beside the values). 1.6% of 350,000 active. AID 720706;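 active means significant combined selectivity score with lowered wild-type GFP, culture density cut under 30%, mutant RFP and density less affected; inactive means any of these conditions unmet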; further: one replicate is shown; some compounds called inactive have numbers as strong as hits
FGF22 binding = FGF22 (human) thermal shift binding; recombinant FGF22 thermal shift, SYPRO orange fluorescence; percent of sucrose octasulfate shift, DMSO zero; calls only at 9.99 µM; 1.5% of 340,000 active; AID 651658;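 active means melting point raised past a set limit in the mean and every replicate; three in four hits are not shown here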
Target sequence (Q9HCT0 whole entry, looked up): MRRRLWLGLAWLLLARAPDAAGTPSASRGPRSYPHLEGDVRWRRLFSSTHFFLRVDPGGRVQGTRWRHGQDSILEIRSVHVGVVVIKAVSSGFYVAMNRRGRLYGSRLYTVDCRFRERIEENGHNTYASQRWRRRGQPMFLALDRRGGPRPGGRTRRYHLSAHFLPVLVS
rRNA inh HTS OD600 = also measured in rRNA inh HTS; calls as there; OD600 change, %; measured here: OD600 growth;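 optical density of the mix in the first replicate; 0 = DMSO median and -100 = no signal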
rRNA inh HTS RFP = recorded beside rRNA inh HTS, whose call it bears; RFP signal change, %; measured here: RFP humanized mutant strains;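 first replicate; 0 = DMSO median and -100 = no signal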
* hit, by the source's call; i = inactive; + = active, no number. The list is partial; rates above refer to the full screens.

SMILES	rRNA inh HTS	rRNA inh HTS OD600	rRNA inh HTS RFP	FGF22 binding
C[C@@H]1CN([C@H](C)CO)C(=O)c2ccccc2-c2ccccc2CO[C@@H]1CN(C)S(=O)(=O)c1ccc(C#N)cc1	-2	2	-2.0	i
C[C@@H]1CN([C@@H](C)CO)C(=O)c2cccc(NC(=O)NC3CCCCC3)c2O[C@@H]1CN(C)CC1CCCCC1	5	4	-1.4	i
C[C@H](CO)N1C[C@H](C)[C@@H](CN(C)C(=O)Nc2ccccc2)OCCCC[C@H](C)Oc2ccc(NS(=O)(=O)c3ccc(F)cc3)cc2C1=O	-4	-4	0.6	i
C[C@@H]1CN([C@H](C)CO)C(=O)c2cc(NC(=O)NC3CCCCC3)ccc2O[C@@H]1CN(C)S(=O)(=O)c1ccccc1	-8	-5	-0.7	i
C[C@H](CO)N1C[C@H](C)[C@@H](CN(C)C(=O)Nc2ccc(F)cc2)Oc2ccc(NC(=O)c3ccncc3)cc2C1=O	4	4	-1.2	i
COc1ccc(NC(=O)N(C)C[C@@H]2Oc3ccc(NC(=O)Nc4ccc(C(F)(F)F)cc4)cc3CC(=O)N([C@@H](C)CO)C[C@@H]2C)cc1	-1	1	1.6	i
COc1cccc(-c2ccc3c(c2)[C@@H]2[C@@H](CCN2C(=O)C2CCC2)[C@H](CO)N3)c1	-4	-14	3.5	i
C[C@@H]1CN([C@H](C)CO)S(=O)(=O)c2ccc(-c3cncnc3)cc2O[C@H]1CN(C)Cc1cncnc1	-1	7	0.0	i
C[C@@H]1CCCCO[C@@H](CN(C)C(=O)Nc2ccc3c(c2)OCO3)[C@H](C)CN([C@H](C)CO)C(=O)c2cc(NS(=O)(=O)c3cn(C)cn3)ccc2O1	-1	-6	0.4	i
COc1ccc(NC(=O)Nc2cccc3c2O[C@@H](CN(C)CC2CCCCC2)[C@@H](C)CN([C@@H](C)CO)C3=O)cc1	0	4	-2.8	i
CCC(=O)N1CC[C@@H]2[C@H](CO)Nc3ccc(-c4ccc(F)cc4)cc3[C@@H]21	5	-13	4.3	i
C[C@@H]1CN([C@H](C)CO)C(=O)Cc2cc(NS(=O)(=O)c3ccc(Cl)cc3)ccc2O[C@@H]1CN(C)Cc1ccncc1	-4	-7	1.4	i
C/C=C/c1ccc2c(c1)O[C@H](CN(C)C(=O)CN1CCOCC1)[C@H](C)CN([C@@H](C)CO)S2(=O)=O	3	7	-2.2	i
Cc1noc(C)c1S(=O)(=O)Nc1ccc2c(c1)C(=O)N([C@@H](C)CO)C[C@@H](C)[C@@H](CN(C)S(=O)(=O)c1ccc(F)cc1)OCCCC[C@H](C)O2	1	1	-1.7	i
COc1ccc(S(=O)(=O)N(C)C[C@@H]2Oc3ccc(NC(=O)NC4CCCCC4)cc3CC(=O)N([C@@H](C)CO)C[C@@H]2C)cc1	-1	-7	1.4	i

Next part, starting with the last 3 of the part before.
SMILES	rRNA inh HTS	rRNA inh HTS OD600	rRNA inh HTS RFP	FGF22 binding
C/C=C/c1ccc2c(c1)O[C@H](CN(C)C(=O)CN1CCOCC1)[C@H](C)CN([C@@H](C)CO)S2(=O)=O	3	7	-2.2	i
Cc1noc(C)c1S(=O)(=O)Nc1ccc2c(c1)C(=O)N([C@@H](C)CO)C[C@@H](C)[C@@H](CN(C)S(=O)(=O)c1ccc(F)cc1)OCCCC[C@H](C)O2	1	1	-1.7	i
COc1ccc(S(=O)(=O)N(C)C[C@@H]2Oc3ccc(NC(=O)NC4CCCCC4)cc3CC(=O)N([C@@H](C)CO)C[C@@H]2C)cc1	-1	-7	1.4	i
Cc1noc(C)c1S(=O)(=O)N(C)C[C@@H]1Oc2ccc(NC(=O)Nc3ccc(F)cc3)cc2CC(=O)N([C@@H](C)CO)C[C@H]1C	0	-12	2.2	i
C[C@@H]1CN([C@H](C)CO)C(=O)c2cc(NC(=O)Cc3ccccc3)ccc2O[C@@H](C)CCCCO[C@H]1CN(C)Cc1ccc2c(c1)OCO2	-1	-1	-0.6	i
CCCNC(=O)[C@H]1N[C@H]2c3ccc(C4=CCCC4)c(=O)n3C[C@H]2[C@@H]1CO	1	-2	-2.3	i
COc1ccc(S(=O)(=O)Nc2ccc3c(c2)C(=O)N([C@H](C)CO)C[C@H](C)[C@H](CN(C)CC2CCCCC2)OCCCC[C@@H](C)O3)cc1	5	-4	2.3	i
C[C@@H]1CN([C@H](C)CO)C(=O)Cc2cc(NC(=O)CCCCCC(=O)Nc3ccccc3N)ccc2O[C@@H]1CN(C)S(=O)(=O)c1cn(C)cn1	2	4	-1.5	i
COc1ccc(NC(=O)Nc2ccc3c(c2)C(=O)N([C@@H](C)CO)C[C@H](C)[C@@H](CN(C)C(=O)Nc2ccccc2)O3)cc1	7	3	-1.5	i
C[C@H]1CN([C@@H](C)CO)C(=O)c2cccc(NC(=O)C3CCOCC3)c2O[C@H]1CN(C)CC1CCCCC1	0	2	-2.8	i
C[C@H](CO)N1C[C@H](C)[C@@H](CN(C)Cc2ccccc2)Oc2ccc(NC(=O)CCC(F)(F)F)cc2C1=O	0	0	0.2	i
O=C(N[C@H](C(=O)N1CCC[C@H]1C(=O)NCCc1ccccc1Cl)c1ccccc1)C1CC1	-15	2	1.1	i
CN(C)CC(=O)Nc1ccc2c(c1)[C@@H]1C[C@@H](CC(=O)NCc3ccccn3)O[C@H](CO)[C@@H]1O2	2	5	1.0	i
COCC#Cc1ccc([C@@H]2[C@H](CO)N3CCCCN(Cc4cccnc4)C[C@@H]23)cc1	-3	-8	-4.5	i
C[C@@H]1CN([C@H](C)CO)C(=O)c2cc(NC(=O)Nc3cccc4ccccc34)ccc2O[C@H]1CN(C)S(C)(=O)=O	3	11	-1.7	i
C[C@@H]1CCCCO[C@H](CN(C)S(=O)(=O)c2ccccc2)[C@H](C)CN([C@H](C)CO)C(=O)c2cc(NS(=O)(=O)c3ccc(F)cc3)ccc2O1	-4	-4	4.8	i
Cc1ccccc1S(=O)(=O)N1[C@H](C#N)[C@H](c2ccc(-c3ccccc3)cc2)[C@H]1CO	-9	-10	3.3	i
O=C(C[C@@H]1C=C[C@H](NS(=O)(=O)c2ccccc2)[C@H](CO)O1)NCc1ccncn1	4	6	1.4	i
CCCC#Cc1cnc2c(c1)C(=O)N([C@@H](C)CO)C[C@H](C)[C@@H](CN(C)S(=O)(=O)c1ccccc1)O2	0	-6	5.5	i
C[C@H]1CN([C@@H](C)CO)C(=O)c2cccc(N(C)C)c2O[C@@H]1CN(C)C(=O)Nc1ccc(C(F)(F)F)cc1	-5	-7	-0.2	i
C[C@@H]1CN([C@@H](C)CO)C(=O)c2cccc(NS(=O)(=O)c3ccccc3)c2O[C@H]1CN(C)C(=O)NC1CCCCC1	3	9	-0.4	i
CC(C)NC(=O)N(C)C[C@@H]1Oc2ccc(NC(=O)CCC(F)(F)F)cc2CC(=O)N([C@H](C)CO)C[C@@H]1C	7	6	-2.4	i
C[C@H](CO)N1C[C@H](C)[C@H](CN(C)C(=O)Nc2ccc(C(F)(F)F)cc2)Oc2ccc(NS(=O)(=O)c3cccs3)cc2C1=O	-9	-10	1.8	i
CCCNC(=O)[C@H]1[C@H](CO)[C@H]2Cn3c(ccc(-c4cccc(F)c4)c3=O)[C@@H]1N2C(=O)CC	2	7	-2.3	i
C[C@@H]1CCCCO[C@@H](CN(C)Cc2ccncc2)[C@H](C)CN([C@H](C)CO)C(=O)c2cc(NC(=O)Nc3cccc4ccccc34)ccc2O1	-6	2	6.8	i
COC(=O)c1cc2c(c3c4ccccc4n(S(=O)(=O)c4cccc(C)c4)c13)C(=O)N(Cc1ccccc1)C2	-2	-3	5.6	i
C[C@H]1CN([C@@H](C)CO)S(=O)(=O)c2ccc(C#Cc3ccncc3)cc2O[C@@H]1CN(C)C(=O)C1CCCCC1	-20	-19	7.2	i
COc1ccc2c3c([nH]c2c1)[C@H](CO)N(Cc1cccc(Cl)c1)CC31CCN(C)CC1	2	0	3.0	i
N#C[C@H]1[C@@H](c2ccc(-c3ccccc3F)cc2)[C@@H](CO)N1C(=O)C1CC1	0	-6	-1.4	i
CC(=O)N(C)C[C@H]1Oc2cc(-c3ccncc3)ccc2S(=O)(=O)N([C@H](C)CO)C[C@H]1C	4	6	-0.1	i
CCCC(=O)Nc1ccc2c(c1)C(=O)N(C)C[C@H](OC)[C@@H](C)CN(C(=O)C1CCCC1)[C@@H](C)CO2	1	-4	1.7	i
O=C(CN1CCOCC1)N1CC2(C1)[C@@H](c1ccccc1)[C@@H](CO)N2Cc1cccc(F)c1	0	7	-0.4	i
CO[C@@H]1CN(C)C(=O)c2ccc(NC(=O)c3ccc(F)cc3)cc2OC[C@H](C)N(C(=O)CC2CC2)C[C@@H]1C	-4	-1	-0.7	i
C[C@@H]1CN([C@H](C)CO)C(=O)c2cc(NS(=O)(=O)c3ccccc3)ccc2O[C@@H]1CN(C)Cc1ccc(Cl)c(Cl)c1	-6	-28	22	i
N#C[C@H]1[C@@H](c2ccc(-c3ccncc3)cc2)[C@@H](CO)N1C(=O)Cc1ccccc1	-3	-31	-0.9	i
COc1ccc2c3c(n(C)c2c1)[C@@H](CO)N(C(=O)C1CCC1)CC31CCN(C(=O)Nc2cccc(F)c2)CC1	-1	-4	5.7	i
C[C@H](CO)N1C[C@H](C)[C@@H](CN(C)C(=O)Nc2ccc3c(c2)OCO3)Oc2ccc(NC(=O)C3CC3)cc2CC1=O	1	3	-1.0	i
C[C@@H]1CN([C@@H](C)CO)C(=O)Cc2cc(NC(=O)NC3CCCCC3)ccc2O[C@H]1CN(C)C(=O)Nc1cccc2ccccc12	-1	-3	4.2	i
C[C@@H]1CN([C@H](C)CO)C(=O)c2cc(NC(=O)Nc3ccc4c(c3)OCO4)ccc2O[C@H]1CN(C)CC1CCCCC1	0	-6	-0.7	i
C[C@H]1CN([C@@H](C)CO)C(=O)c2cc(NC(=O)C3CCCCC3)ccc2O[C@@H]1CN(C)C(=O)Nc1ccc2c(c1)OCO2	2	-4	-0.3	i
C[C@@H]1CCCCO[C@@H](CN(C)C)[C@H](C)CN([C@H](C)CO)C(=O)c2cc(NC(=O)Nc3ccc4c(c3)OCO4)ccc2O1	7	8	-0.6	i
C[C@@H]1CN([C@H](C)CO)C(=O)c2cccc(NS(C)(=O)=O)c2O[C@@H]1CN(C)Cc1ccc(-c2ccccc2)cc1	-2	1	5.0	i
C[C@H](CO)N1C[C@H](C)[C@H](CN(C)Cc2ccncc2)OCCCC[C@H](C)Oc2ccc(N(C)C)cc2C1=O	-2	2	-1.9	i
Cc1cc(C(=O)Nc2cccc3c2O[C@H](CN(C)S(=O)(=O)c2c(C)noc2C)[C@H](C)CN([C@H](C)CO)C3=O)n(C)n1	-1	-3	0.3	i
O=C(N[C@H]1C=C[C@H](CC(=O)N2CCCCC2)O[C@H]1CO)c1cccc(F)c1	4	6	-2.8	+
COc1ccc(NC(=O)Nc2cccc3c2O[C@H](CN(C)C(=O)Nc2cccc4ccccc24)[C@H](C)CN([C@@H](C)CO)C3=O)cc1	-53	-74	-15	i
C[C@@H]1CN([C@H](C)CO)S(=O)(=O)c2ccc(C#CC3CC3)cc2O[C@H]1CN(C)C(=O)Cc1ccncc1	-8	-15	2.9	i
COCC(=O)Nc1ccc2c(c1)OC[C@@H](C)N(C(=O)CC1CC1)C[C@H](C)[C@@H](OC)CN(C)C2=O	1	3	0.3	i

Reformatted with each value named: three of the compounds above
C[C@@H]1CN([C@H](C)CO)C(=O)c2cccc(NS(C)(=O)=O)c2O[C@@H]1CN(C)Cc1ccc(-c2ccccc2)cc1
- rRNA inh HTS = -2
- rRNA inh HTS OD600 = 1
- rRNA inh HTS RFP = 5.0
- FGF22 binding = i
C[C@H](CO)N1C[C@H](C)[C@H](CN(C)Cc2ccncc2)OCCCC[C@H](C)Oc2ccc(N(C)C)cc2C1=O
- rRNA inh HTS = -2
- rRNA inh HTS OD600 = 2
- rRNA inh HTS RFP = -1.9
- FGF22 binding = i
Cc1cc(C(=O)Nc2cccc3c2O[C@H](CN(C)S(=O)(=O)c2c(C)noc2C)[C@H](C)CN([C@H](C)CO)C3=O)n(C)n1
- rRNA inh HTS = -1
- rRNA inh HTS OD600 = -3
- rRNA inh HTS RFP = 0.3
- FGF22 binding = i

Later entries.
SMILES	rRNA inh HTS	rRNA inh HTS OD600	rRNA inh HTS RFP	FGF22 binding
CO[C@@H]1CN(C)C(=O)c2ccc(NC(=O)c3ccccc3)cc2OC[C@H](C)N(C(C)=O)C[C@@H]1C	0	-4	-1.4	i
C[C@H](CO)N1C[C@H](C)[C@H](CN(C)CC2CC2)Oc2c(NC(=O)C3CC3)cccc2C1=O	3	4	-1.8	i
O=C(c1cnccn1)N1CC(=O)N2[C@@H](CO)[C@H](c3ccc(C#CCc4ccccc4)cc3)[C@@H]2C1	-1	1	-0.1	i
C[C@@H]1CN([C@@H](C)CO)C(=O)Cc2cc(NS(=O)(=O)c3ccccc3)ccc2O[C@H]1CN(C)C	0	-6	3.2	i
C[C@@H]1CN([C@@H](C)CO)C(=O)c2cccc(NS(=O)(=O)c3cccs3)c2O[C@@H]1CN(C)S(=O)(=O)c1ccc(Cl)cc1	-2	16	-1.5	i
Cc1ccc(S(=O)(=O)Nc2cccc3c2O[C@@H](CN(C)S(=O)(=O)c2ccc(F)cc2)[C@@H](C)CN([C@@H](C)CO)C3=O)cc1	2	3	4.0	i
C[C@@H]1CCCCO[C@@H](CN(C)C(=O)CCCN(C)C)[C@H](C)CN([C@@H](C)CO)C(=O)c2cc(NC(=O)C3CCCCC3)ccc2O1	2	13	-0.8	i
COCCNC(=O)C[C@H]1CC[C@@H]2[C@@H](COc3ccc(NC(=O)Cc4ccccc4)cc3C(=O)N2C)O1	1	-3	1.6	i

Compound activity deposited in PubChem BioAssay by Broad Institute.
